Screens deposited in PubChem by several laboratories.
BJeLR lethal: BJeLR cell viability loss; BJeLR (HRASV12) viability, CellTiter-Glo ATP luminescence, 48 h; reference of the scale not given here; inhibition, % (test concentration not listed); 300,000 tested, 0.17% active; AID 1554;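 active means replicate mean above 50%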;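 further: 50 nL library stock added to about 25 µL; numbers are from one replicate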
Sa RN4220 lethal: S. aureus RN4220 growth inhibition | AID 1259311 | OD600, 16 h | 330,000 tested, 0.33% active | inhibition, % (concentration not given with the values);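 active means z-score of -3 or lower and OD600 up to 0.18 on both plates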;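 further: plate controls were untreated cells for no effect and reference antibiotic for full effect; stock transfer was 100 nL into about 80 µL; one replicate is shown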
PrP UTR inh: inhibition of PrP 5' UTR reporter expression; inhibition, % (concentration not given with the values); cell-based PrP 5' UTR mRNA reporter, plate reader; AID 488862; 340,000 tested, 0.35% active;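 active means every replicate at 50% or more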;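 further: 0 = median of the neutral control wells; tested in H4 reporter cells; numbers are from one replicate; inactives centre near -14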
Mtb hypoxia rep: Mtb hypoxia fluorescent reporter inhibition; M. tuberculosis hypoxia-regulated fluorescent reporter, fluorescence; fluorescence inhibition, % (test concentration not listed); 300,000 tested, 0.1% active; AID 1159583;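 active means 35 to 45% if threefold the growth effect, above 45% if 1.5-fold the growth effect; inactive means the rest, general growth blockers included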;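 further: wells of about 50 µL received 100 nL stock; 0% = vehicle wells and 100% = reference inhibitor wells; whole bacteria with a GFP reporter of the hypoxia response; strong numbers were not always called active; many hits fall short of the cut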
Bead autofluor: counter-screen for toxin protease inhibitors: compound fluorescence; AID 624483; compound autofluorescence counterscreen, microsphere flow cytometry; active compounds read high; 360,000 tested, 3.1% active; fluorescence intensity (test concentration not listed);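 active means at least 3 SD above the mean of all compounds, about 16000 in these data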;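 further: 100 nL of 1 mM stock went into each well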
ugtP null kill: growth inhibition of S. aureus ugtP deletion strain | S. aureus RN4220 ugtP deletion, OD600 growth, 16 h; some inactives read as strong as hits | growth inhibition, % (no concentration beside the values) | 330,000 tested, 0.54% active | AID 1259309;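 active means z-score under -3 and OD600 up to 0.15 on both plates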;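 further: plate controls were untreated wells for no effect and antibiotic for full effect; wells of about 80 µL received 100 nL stock; the first replicate is given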
Mtb hypoxia rep growth: further read-out of Mtb hypoxia rep, marked with its call; growth inhibition, %; measured here: M. tuberculosis growth (absorbance);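 0% = vehicle and 100% = reference antibiotic; read after six days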
Starred values were filed as active, the others as inactive; . = no result given; & = joins results of further samples.

SMILES	BJeLR lethal	Sa RN4220 lethal	PrP UTR inh	Mtb hypoxia rep	Mtb hypoxia rep growth	Bead autofluor	ugtP null kill
O=C1[C@@H]2Cc3c([nH]c4ccccc34)C(c3cccc([N+](=O)[O-])c3)N2C(=O)CN1CCCO (stereo partly drawn)	5	-0.7	-20	8	8	3470	6
Cn1c(=O)c2c(nc(NCc3cccnc3)n2Cc2ccccc2Cl)n(C)c1=O	5	-0.1	-29	-3	15	2122	-5
COc1ccc(C2c3ccc(O)cc3Oc3ncn4nc(-c5ccccn5)nc4c32)cc1OC (stereo not drawn)	11	2.6	-19	6	-1	.	11
C=CCOc1ccc(/C=N/NC(=O)C(=O)N2CCCCCC2)cc1OC	-6	.	-5	.	.	2866	.
O=C(COc1ccc(Cl)cc1[N+](=O)[O-])N/N=C/c1cccs1	-11	.	-8	.	.	3253	.
CC1CCC(NC(=O)c2cccc(S(=O)(=O)N3CCN(c4ccc(F)cc4)CC3)c2)CC1 (stereo not drawn)	6	4.5	-30	-2	6	.	2
Cc1ccc(-n2c(=O)c3ccc(C(=O)NCc4ccco4)cc3n(Cc3ccccc3C#N)c2=O)cc1	0	2.8	-21	-8	1	2568	7
CCCCCC(O)(c1ccc(OCC)cc1)C(CN1CCOCC1)c1ccccc1 (stereo not drawn)	-6	-4.3	-18	-2	-6	3654	4
CCN(CC)S(=O)(=O)c1ccc(C(=O)OCC(=O)c2ccc3c(c2)NC(=O)CO3)cc1	-2	5.9	-40	4	0	10617	3
Clc1ccc(-c2nnc3ccccn23)cc1	-5	1.1	6	.	.	2747	4
CCCCC(C(=O)O)C(C)CC(=O)Nc1nccs1 (stereo not drawn)	-1	0.8	-11	12	8	3274	3
CC(C)c1ccc(C=NNC(=O)c2nnn(-c3nonc3N)c2CN2CCOCC2)cc1	.	2.2	.	-7	3	.	0
COc1cccc(NC(=O)CN2C(=O)COc3ccc(S(=O)(=O)N4CCC(C)CC4)cc32)c1	8	-1.7	-19	0	-10	5377	1
Cc1cc(C)c(NC(=O)CSc2nnc(-c3ccncc3)n2Cc2ccco2)c(Cl)c1	-5	1.5	-22	15	3	9547	-4
CCN1CCN(CCc2nc3cc(NC(=O)COc4ccccc4)ccc3n2C)CC1	4	4.8	-19	14	6	5008	7
O=C(Nc1c(C(=O)N2CCOCC2)cnn1-c1ccccc1)c1ccc(F)cc1	6	-0.6	5	-4	-17	.	-8
CCN1C(=O)NC(CCc2ccccc2)C(C(=O)OC)C1C (stereo not drawn)	.	-0.3&5.1	.	-2&22	1&10	.	-6&5
CC(NC(=O)c1cc(Br)ccc1Cl)c1ccccc1 (stereo not drawn)	2	9.9	-10	4	12	3952	-1
O=c1ccnc(NCCc2ccccc2)[nH]1	.	0.8	-20	.	.	3929	7
Cc1ccc(OCc2ccc(C(=O)NCc3cccnc3)cc2)cc1C	2	-4.7	-20	0	5	2621	-3
COc1ccc2nc(SCC(=O)Nc3cc(C)on3)c(C#N)cc2c1	4	-1.0	-35	3	0	5199	1
COCCCNC(=O)CC(NS(=O)(=O)c1ccc(Cl)cc1)c1ccc(OC)cc1 (stereo not drawn)	5	1.8	-31	-3	-5	7234	10
COCCN(Cc1cc2cccc(C)c2[nH]c1=O)C(=O)c1ccccc1	-15	3.3	8	12	12	6851	18
CCC1=Nc2cc(C(=O)NCCN3CCOCC3)ccc2Sc2ccc(Br)cc21	6	3.1	-17	7	3	5383	0
COc1ccc(/C=C/C(=O)O/N=C(\N)c2cccnc2)cc1OC	-4	2.8	-29	6	1	4213	10
Cc1ccc(S(=O)(=O)Cn2nnnc2C(C(C)C)N2CCN(C(=O)c3ccco3)CC2)cc1 (stereo not drawn)	0	-0.5	-13	.	.	4080	2
COc1ccc(OC)c(N=Nc2c(O)c3ccccc3[nH]c2=O)c1	.	2.3	-20	13	14	3885	-1
Cc1ccc(C(=O)CSc2nsc(C)c2C#N)cc1	-5	14	-63	.	.	2994	12
COC(=O)CCc1c(C)[nH]c(=S)[nH]c1=O	-12	-2.2	-19	.	.	3432	-7
Cc1ncc(S(=O)(=O)c2ccc(Cl)cc2)c(-c2ccccc2)n1	-1	7.8	-24	.	.	2930	-9
CC(=O)N1CCN(c2ccc(N=Cc3c(O)n(-c4ccc(Cl)cc4)c(=O)[nH]c3=O)cc2)CC1	0	0.6	-97	.	.	2577	-9
Cc1cc(C)cc(NC2=NCCCS2)c1	1	0.2	-14	-17	-3	6304	-9
CC(=NN=C(N)c1nonc1N)c1ccc2c(c1)OCO2	.	5.9	.	5	13	.	4
O=C(c1cnc2nc3ccccc3n2c1)c1cc(F)ccc1O	8	5.2	-23	-9	2	4469	6
COc1cccc(C2(C#N)CCN(C)CC2)c1	5	3.0	-32	10	4	3911	6
C=CCn1c(CNc2ccccc2)nnc1SCC(=O)N/N=C/c1ccccc1O	10	.	-35	.	.	2754	.
CCOC(=O)CSc1nnc(NC(=O)c2ccco2)s1	1	1.0	8	3	-4	5925	2
O=[N+]([O-])c1ccc(C=NNc2ncccc2[N+](=O)[O-])s1	.	6.3	.	-3	11	.	-2
CN(C)C(=O)CSc1nnc(-c2ccc(S(=O)(=O)N3CCCC3)cc2)n1C	13	0.8	-2	-2	-4	3290	1
NC(=O)c1cc(Cl)ccc1OCC(=O)N1CCCc2ccccc21	-3	-0.5	-29	17	6	3762	7
O=C(NCCCN1C(=O)c2ccccc2C1=O)OCc1ccccc1	.	4.0	-11	11	4	3338	7
Cn1c(N)c(C(=O)COC(=O)CSc2ccc(Cl)cc2)c(=O)n(C)c1=O	8	9.4	-10	-1	2	10070	10
Cn1c(=O)c2nncnc2n(C)c1=O	-17	4.4	-28	-2	-4	2658	-1
CCNS(=O)(=O)c1ccc(CCC(=O)NCc2ccc(C)cc2)cc1	9	-3.1	-7	7	-11	4552	2
COc1ccc(-c2nn(CCC#N)cc2/C=N/O)cc1OC	-4	.	-24	.	.	4561	.
O=C(CCN1CCCCCC1)Nc1ccccc1F	3	15	5	-6	2	2975	8
COc1ccc(C(=O)Nc2ccccc2N2CCOCC2)cc1[N+](=O)[O-]	-2	5.1	-14	11	3	2014	6
CSCCC(NC(=O)c1ccoc1C)C(=O)O (stereo not drawn)	-6	5.3	-19	6	5	6001	7
Cc1ccc(CNC(=O)CCc2ccc(S(=O)(=O)NC3CCCCC3)cc2)cc1	-3	-1.2	-5	.	.	2221	1
O=C(Nc1ccccc1)c1ccc(F)c(S(=O)(=O)N2CCOCC2)c1	1	4.5	5	-6	10	9370	-6
O=C(CCNC(=O)c1ccc(Cl)cc1)Nc1ncccc1O	-3	1.7	1	-8	-12	.	-3
COc1ccc(C2CC(c3cccs3)=NN2c2nc(C)c(C(C)=O)s2)cc1OC (stereo not drawn)	2	4.3	-16	-5	12	4699	2
Cc1ccc(OCc2nnc(SCC(=O)Nc3ncc(C)s3)o2)cc1	-1	2.8	-12	-3	8	5870	0
COc1cc(-c2nnc(-c3ccco3)o2)ccc1OCc1ccccc1	-21	33	-23	7	15	4476	18
CC[C@]12c3[nH]c4cc(-c5ccco5)ccc4c3CCN1C(=O)[C@@H](CC(=O)NCCC1=CCCCC1)C[C@@H]2C(=O)N1CCN(C(=O)C2CC2)CC1	.	-1.4	3	2	8	3217	-3
C/C(=N\Nc1ccccc1C)c1cccnc1	-16	.	-38	.	.	3695	.
Cn1cc(C(=O)NCc2cccs2)c(=O)c2cc(S(=O)(=O)N3CCCC3)ccc21	-2	8.1	-18	4	-2	10241	0
CCC(=O)N1CCN(CCN=CC2=C(O)CC(c3ccc(OC)cc3)CC2=O)CC1 (stereo not drawn)	-3	5.3	-17	5	3	1956	2
CC(C)(C)c1ccc(S(=O)(=O)CCc2ccccn2)cc1	0	7.4	-64	4	7	2930	7
CC(Oc1ccc(C(=O)c2ccc(F)cc2)cc1)C(=O)N1CCOCC1 (stereo not drawn)	-12	0.8	-24	0	-1	5808	3

14 neighbouring records from above, for reference:
SMILES	BJeLR lethal	Sa RN4220 lethal	PrP UTR inh	Mtb hypoxia rep	Mtb hypoxia rep growth	Bead autofluor	ugtP null kill
O=C(NCCCN1C(=O)c2ccccc2C1=O)OCc1ccccc1	.	4.0	-11	11	4	3338	7
Cn1c(N)c(C(=O)COC(=O)CSc2ccc(Cl)cc2)c(=O)n(C)c1=O	8	9.4	-10	-1	2	10070	10
Cn1c(=O)c2nncnc2n(C)c1=O	-17	4.4	-28	-2	-4	2658	-1
CCNS(=O)(=O)c1ccc(CCC(=O)NCc2ccc(C)cc2)cc1	9	-3.1	-7	7	-11	4552	2
COc1ccc(-c2nn(CCC#N)cc2/C=N/O)cc1OC	-4	.	-24	.	.	4561	.
O=C(CCN1CCCCCC1)Nc1ccccc1F	3	15	5	-6	2	2975	8
COc1ccc(C(=O)Nc2ccccc2N2CCOCC2)cc1[N+](=O)[O-]	-2	5.1	-14	11	3	2014	6
CSCCC(NC(=O)c1ccoc1C)C(=O)O (stereo not drawn)	-6	5.3	-19	6	5	6001	7
Cc1ccc(CNC(=O)CCc2ccc(S(=O)(=O)NC3CCCCC3)cc2)cc1	-3	-1.2	-5	.	.	2221	1
O=C(Nc1ccccc1)c1ccc(F)c(S(=O)(=O)N2CCOCC2)c1	1	4.5	5	-6	10	9370	-6
O=C(CCNC(=O)c1ccc(Cl)cc1)Nc1ncccc1O	-3	1.7	1	-8	-12	.	-3
COc1ccc(C2CC(c3cccs3)=NN2c2nc(C)c(C(C)=O)s2)cc1OC (stereo not drawn)	2	4.3	-16	-5	12	4699	2
Cc1ccc(OCc2nnc(SCC(=O)Nc3ncc(C)s3)o2)cc1	-1	2.8	-12	-3	8	5870	0
COc1cc(-c2nnc(-c3ccco3)o2)ccc1OCc1ccccc1	-21	33	-23	7	15	4476	18

Other entries.
SMILES	BJeLR lethal	Sa RN4220 lethal	PrP UTR inh	Mtb hypoxia rep	Mtb hypoxia rep growth	Bead autofluor	ugtP null kill
Cc1cc(OC(=O)Cc2cccc3ccccc23)c([N+](=O)[O-])c(=O)[nH]1	7	3.2	-29	14	4	2205	4
CC1CCN(S(=O)(=O)c2ccc3c(ccn3CCC(=O)N3CCCCC3)c2)CC1	2	-0.6	-1	1	0	4416	3
COc1ccccc1/C=C(\NC(=O)c1ccc(OC)c(OC)c1)C(=O)Nc1cc([N+](=O)[O-])ccc1C	4	1.4	-4	-17	-16	2033	-2
C#CCNC(=O)C1=CC(C(C)(C)C)CC(OCc2ccc(CO)cc2)O1 (stereo not drawn)	.	7.2	.	10	13	.	-6
Clc1ccccc1-c1nn2c(-c3ccncc3)nnc2s1	2	8.9	-16	-1	-2	7473	-8
Cc1ccc(Cn2c(=N)c(C(=O)NCc3ccco3)cc3c(=O)n4ccccc4nc32)cc1	1	5.0	1	6	16	3406	-8
COC(C/C=C/[C@@H](O)COCc1ccccc1)OC	2	.	-22	.	.	3509	.
O=C(NCCc1ccccc1)c1cc([N+](=O)[O-])ccc1N1CCOCC1	.	1.5	-7	14	11	3029	1
NC(=O)C1=CC(c2ccccc2)CC(OCc2ccc(CO)cc2)O1 (stereo not drawn)	.	5.7&6.1	.	21&0	18&1	.	7&-12
COc1cccc(C=NNC(=O)c2ccc([N+](=O)[O-])cc2Cl)c1O	.	7.9	.	2	-12	.	-3
COc1ccc(S(=O)(=O)NC(C)C(=O)NCc2cccnc2)cc1OC (stereo not drawn)	-3	0.6	12	-8	5	3728	1
Cc1csc(SC(C)c2nc3scc(-c4ccccc4)c3c(=O)[nH]2)n1 (stereo not drawn)	18	3.1	-31	0	2	4461	8
COc1cccc(CC(=O)Nc2nc(-c3ccc(OC)c(OC)c3)cs2)c1	1	-10	-1	5	-11	3091	33
Cc1csc(SCC(=O)NC(C)C2CC3CCC2C3)n1 (stereo not drawn)	1	1.0	-83	22	12	5360	1
CCCn1nc(C(=O)OCC(=O)c2c(N)n(C)c(=O)n(C)c2=O)c2ccccc2c1=O	5	0.2	-8	-18	1	4469	-5
CN(CCc1cnn(C)c1)Cc1cn(C)nc1-c1ccc2c(c1)OCCO2	-5	0.1	-13	-1	-3	2560	7
CCN1CCN(C(=O)c2ccc(CN(c3ccc(C)c(C)c3)S(C)(=O)=O)cc2)CC1	-3	3.4	-8	0	-4	4660	1
